gsp antag – qHTS for Antagonists of gsp, the Etiologic Mutation Responsible for Fibrous Dysplasia/McCune-Albright Syndrome: qHTS | gsp-mutant cells, cAMP HTRF, 30 min; control for the full effect not named in the record | Potency, µM (doses to about 76.9 µM), for inactives: at the top dose activity change, negative = inhibition, actives largely listed as inhibitors | 340,000 compounds, 0.4% hits | AID 624288, 2012; active = falling curve of any shape with a large fitted effect; inconclusive = falling curve, mostly with a smaller effect; inactive = flat or rising curve; cell line not stated here;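 also: intracellular cAMP measured with PDE inhibitor Ro 20-1724 present during compound exposure; potency is read from the fitted curve at half-maximal effect; % is scaled to controls: 0 for no effect and ±100 for the full control effect; nearly all actives have a fitted effect of over 65% in size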
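G418-selected cells were plated in DMEM/10% FBS for 16-24 h at 37C, then treated with compounds plus the PDE inhibitor […] (300 uM solution added) for 30 min at 37C. Intracellular cAMP was measured by HTRF after 30 min lysis at room temperature.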
ClpP mod – qHTS Assay for Activators of ClpP. 340,000 compounds, 1.9% hits. AID 651965, 2013. Potency, µM (titrated, usually from 57.5 µM), inactives show at the top dose activity change, negative = active. purified B. subtilis ClpP, FRET peptide cleavage, 20 min; active = well fitted falling curve with a large enough effect; inconclusive = small, poorly fitted or top-dose-only effect; inactive = no such curve, though single readings can be large or run the other way; also: potency is read from the fitted curve at half-maximal effect; the source files actives as falling curves though it sought activators and does not explain the sign; nearly all actives have a fitted effect of over 65% in size; many hits overshoot -100%
Target sequence (P80244 whole entry, looked up): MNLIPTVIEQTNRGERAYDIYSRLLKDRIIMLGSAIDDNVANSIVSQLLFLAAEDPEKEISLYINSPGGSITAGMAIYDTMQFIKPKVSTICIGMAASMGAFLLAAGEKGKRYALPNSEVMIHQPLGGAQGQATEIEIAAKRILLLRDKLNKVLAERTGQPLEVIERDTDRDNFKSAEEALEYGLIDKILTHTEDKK
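Buffer: 100 mM Tris/HCl pH8, 100 mM KCl, 0.05% low protease BSA, 2.5% glycerol, 0.01% Tween-20. ClpP 10 microg/mL final; 20 min RT; delta FRET normalized to ADEP and DMSO controls.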
Sfp inh – qHTS Assay for Inhibitors of Bacillus subtilis Sfp phosphopantetheinyl transferase (PPTase); 4'-phosphopantetheinyl transferase ffp (Bacillus subtilis), Q9F4F7; Biochemical Sfp PPTase activity, qHTS; Potency, µM, inactives show max response, negative = inhibition, usual class: inhibitors; 310,000 compounds, 3.5% hits; active = well fitted inhibition curve with a large enough effect; inconclusive = small, poorly fitted or top-dose-only effect, or another doubt; inactive = no such curve, though single readings can be large or run the other way;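 also: the enzyme is Sfp with the accession as filed and its product quenches rhodamine fluorescence; potency is read from the fitted curve at half-maximal effect; 0% = enzyme reaction without inhibitor and -100% = no enzyme wells; top concentration of the series not given in the record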
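With Hepes-Na pH 7.6 buffer containing 10 mM MgCl2, Sfp (15 nM) modified BHQ-2-YbbR (12.5 uM) using rhodamine-CoA (5 uM). Two reads 30 minutes apart at 525/598 nm yielded each well's rate.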
TRPV1 PAM – HTS Assay for Compounds that Act as Potentiators of the Vanilloid Receptor 1; 320,000 compounds, 0.02% hits; Transient receptor potential cation channel subfamily V member 1 (Homo sapiens), Q8NER1; potentiation, % at 8.33 µM; AID 540277, 2011; TRPV1-expressing cells, Fluo-8 calcium influx, capsaicin EC20 potentiation; host cell line not named in the record; control for the full effect not named in the record; active means potentiation above 80%; inconclusive means 30% to 80%; inactive means below 30%; also: 0% is about no effect
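Cells expressing TRPV1 were dye-loaded with Fluo-8 and read kinetically: 10 s baseline, 3 min after compound (agonist portion), then 2 min after EC20 capsaicin (allosteric enhancer portion). Calcium-bound dye fluorescence at 480/520 nm.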
gsp ag – qHTS for Agonist of gsp, the Etiologic Mutation Responsible for Fibrous Dysplasia/McCune-Albright Syndrome: qHTS | gsp mutant cells, cAMP HTRF, 30 min; control for the full effect not named in the record | Potency, µM (titrated, usually from 76.9 µM), for inactives: at the highest dose activation (cAMP increase), most hits filed as activators | 340,000 compounds, 0.13% hits; active = well fitted activation curve with a large enough effect; inconclusive = small, poorly fitted or top-dose-only effect, or another doubt; inactive = no such curve, though single readings can be large or run the other way; cell line not stated here;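 also: phosphodiesterase inhibitor Ro 20-1724 added with compounds to block cAMP breakdown; potency is read from the fitted curve at half-maximal effect; nearly all actives have a fitted effect of over 60% in size; about a fifth of the inactives were tested at one dose only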
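Cells stably selected in G418 were plated at 2000/well, grown 16-24 hr, then given compounds in DMSO with the PDE inhibitor […] (300 uM solution added) for 30 min at 37C; cAMP was read by HTRF.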
D2 PAM – Beta-Arrestin HTS for Positive Allosteric Modulators of the Human D2 Dopamine Receptor: Potentiators | D(2) dopamine receptor (Homo sapiens), P14416 | DiscoveRx D2 beta-arrestin cells, luminescence, 90 min; 100% = 57 uM dopamine signal | potentiation, % (concentration not given with the values) | 360,000 compounds, 0.23% hits | AID 624464, 2012; active = potentiation of 50% or more; inconclusive = 30% to 50%; inactive = 30% or less;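 also: tested on top of an EC20 dose of dopamine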
Target sequence (P14416 whole entry, looked up): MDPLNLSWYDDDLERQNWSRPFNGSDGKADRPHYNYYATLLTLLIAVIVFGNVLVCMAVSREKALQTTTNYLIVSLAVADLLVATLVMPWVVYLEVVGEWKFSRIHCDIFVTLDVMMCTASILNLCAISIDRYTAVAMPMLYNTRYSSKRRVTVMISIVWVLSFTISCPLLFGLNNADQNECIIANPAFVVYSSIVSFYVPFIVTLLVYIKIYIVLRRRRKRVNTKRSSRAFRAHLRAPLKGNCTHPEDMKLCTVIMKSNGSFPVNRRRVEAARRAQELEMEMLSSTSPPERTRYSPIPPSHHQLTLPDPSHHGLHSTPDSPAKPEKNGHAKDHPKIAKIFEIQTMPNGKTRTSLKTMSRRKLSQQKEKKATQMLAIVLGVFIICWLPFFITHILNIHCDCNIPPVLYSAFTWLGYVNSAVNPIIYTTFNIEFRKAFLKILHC
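PathHunter beta-arrestin assay in DiscoveRx D2 cells. Compounds were added with an EC20 of dopamine (50 nM final) for 90 min at 37 deg C. Luminescence was read 1 h after detection reagent, with 57 uM dopamine as the EC100 control.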
Menin MLL FP FL – qHTS Assay for Inhibitors Targeting the Menin-MLL Interaction in MLL Related Leukemias: Competition With Fluorescein Labeled MLL-derived Peptide; FP activity change, % at 61.4 µM; 290,000 tested, under 10 active; AID 1766, 2009; Fluorescence polarization, fluorescein-MLL peptide displacement from menin; inconclusive = falling polarisation curve, or a change in total fluorescence; inactive = total fluorescence flat and polarisation flat or rising; no compound was filed as active; the % refers to the polarisation; negative = inhibition;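 also: % of control where 0% means no effect; inhibitors lower the polarisation; unlabelled MLL peptide was the positive control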
An asterisk follows results filed as active; ? = inconclusive; . = not tested or not shown; & = joins results of further samples; [ ] = remark or other dose.

Preview, 2 compounds:
compound,gsp ag,Sfp inh,ClpP mod,Menin MLL FP FL,gsp antag,D2 PAM,TRPV1 PAM
O=C(c1ccc(NC2=NC3CS(=O)(=O)CC3S2)cc1)N1CCN(Cc2ccccc2)CC1 (stereo unspecified),-20%,-25%,-2.7%,0.8,-2%,-7,-1
C=CCN1C(=O)/C(=C2/Sc3ccc(OC)cc3N2C)SC1=Nc1ccccc1,6%,17%,-0.8%,?,3%,-9,3

Main list, from the start:
compound,gsp ag,Sfp inh,ClpP mod,Menin MLL FP FL,gsp antag,D2 PAM,TRPV1 PAM
O=C(c1ccc(NC2=NC3CS(=O)(=O)CC3S2)cc1)N1CCN(Cc2ccccc2)CC1 (stereo unspecified),-20%,-25%,-2.7%,0.8,-2%,-7,-1
C=CCN1C(=O)/C(=C2/Sc3ccc(OC)cc3N2C)SC1=Nc1ccccc1,6%,17%,-0.8%,?,3%,-9,3
O=C(O)c1ccccc1C(=O)NC1Cc2ccccc2C1,?,-3%,.,1.2,4%,4,7
CCOc1ccc(/C=C2\SC(=S)NC2=O)cc1OC,-26%,-6%,.,?,?,3,2
O=C(c1cccs1)N1CCc2ccccc21,-7%,-3%,1.0%,-6.0,6%,-10,12
CCOc1ccc(Cc2nc(C)c(CC(=O)N3CCOCC3)c(=O)[nH]2)cc1,-27%,-3%,-1.1%,3.3,12%,-9,-7
CC(C(=O)NC(=O)NC1CCCCC1)N(C)CC(=O)Nc1ccc(F)c(F)c1F (stereo unspecified),-17%[15.4 µM],.,.,.,-4%,-9,-4
O=C(NCCCCNCCCNC(=O)c1ccccc1)c1ccccc1,.,.,-5.5%,.,11%,-72,.
O=C(CCNS(=O)(=O)c1ccccc1F)OCc1ccccc1Cl,8%,.,.,.,8%,-7,.
O=C(CSc1n[nH]c(-c2ccccc2F)n1)Nc1cc(F)ccc1F,-5%,.,1.0%,.,-8%,0,6
O=C1NC(=Nc2ccc(O)cc2)S/C1=C\C=C\c1ccco1,?,-26%,-2.7%,25,3%,-7,-14
O=C(CNc1cc([N+](=O)[O-])ccc1NCCO)Nc1cccc(S(=O)(=O)N2CCCCC2)c1,?,.,-2.1%,.,-15%,-5,3
CCCCOC(=O)C1CCCC(C(=O)OCCCC)N1 (stereo unspecified),-3%,16%,-1.4%,-0.3,3%,-4,-3
S=C(Cc1ccc(Cl)cc1)N1CCOCC1,0%,-21%,.,-7.3,6%,5,3
O=C(NC(CO)C(O)c1ccc([N+](=O)[O-])cc1)C(Cl)Cl (stereo unspecified),.,28%&12%,-0.9%,2.8&-2.3,-3%,-5,-29
FC(F)(F)c1ccc(Cl)c(-n2c(-c3cc(C4CC4)[nH]n3)n[nH]c2=S)c1,3%[15.4 µM],-22%,-0.2%,-0.8,-26%,-15,5
Nc1cc(Cl)ccc1Oc1ccc2ccccc2c1,8%,14%,-2.4%,-0.2,-4%,-14,-1
CN(C)c1ccc(C(C(=O)NCC2CCCO2)N(C(=O)c2snc(C(N)=O)c2N)c2ccc3c(c2)OCO3)cc1 (stereo unspecified),16%[15.4 µM],-10%,.,3.8,-26%,-3,12
Cc1cc(C)c(NC(=O)CSc2nc(COc3ccccc3)nc3ccccc23)c(C)c1,22%,-19%,0.6%,5.2,24%,2,1
CC(C)(C)n1nnnc1SCC(=O)Nc1nn(-c2ccccc2)nc1C(N)=O,-5%[15.4 µM],14%,-0.5%,-1.5,9%,-3,0
O=C(Nc1ccc(-c2csc(Nc3ccccc3)n2)cc1)c1cccc(C(F)(F)F)c1,.,0%,?,-0.7,7%,-5,-37
CCOc1ccc(C2c3c(oc4cc(C)c(C)cc4c3=O)C(=O)N2CCCN2CCOCC2)cc1 (stereo unspecified),-23%,50µM*,0.4%,-1.8,-6%,3,?
Cn1nc(CC(=O)NC2CCCCCCCCCCC2)c2ccccc2c1=O,-4%,4%,1.5%,3.8,-9%,-1,-9
COc1cc(/C=C/C(=O)N2CCN(Cc3ccccc3)CC2)cc(OC)c1OC,1%,-2%,?,1.7,0%,-15,-13
COc1ccc(/C(C)=N/NC(=O)CNC(=O)/C=C\c2ccccc2)c(OC)c1,-27%,-2%,0.0%,-12,5%,6,9
CCCCN=C1NN=C(c2ccc(C)c(C)c2)CS1,7%[15.4 µM],-25%,.,11,-9%,-13,-19
CCOC(=O)c1cnc2c(-c3ccccc3)cnn2c1C,3%,-8%,.,-1.1,-14%,0,-11
CCc1ccc(N2C(=O)CC(N3CCN(Cc4ccc5c(c4)OCO5)CC3)C2=O)cc1 (stereo unspecified),1%,17%,.,0.0,7%,-5,1
O=C(CSc1nc(-c2ccccc2)cs1)N1CCN(C(=O)c2ccco2)CC1,-2%,-29%,-3.0%,2.2,-22%,-4,-9
CC1(C)Cc2c(cnn2-c2ccccc2)C(=O)/C1=N\NC(=O)c1ccccc1O,8%,15%,-2.0%,4.6,-18%,-31,-2
Cc1cccc(C(=O)N2CCN(Cc3nc4sc5c(c4c(=O)[nH]3)CCCC5)CC2)c1,21%,-2%,.,.,-18%,-5,10
COc1ccc(NC(=O)CC2SC(N3CCOCC3)=NC2=O)cc1OC (stereo unspecified),16%,.,0.2%,.,21%,-3,21
O=C(N1CCc2[nH]c3ccccc3c2C1)C(F)(F)F,-38%[inhibitor],8%,?,-8.6,11%,-8,-9
CN1CCC(N(C)C(=O)c2ccc(Cl)c(S(=O)(=O)N3CCCCC3)c2)CC1,-12%,.,0.6%,.,0%,0,-2
COc1ccc(NC(=O)CSc2ccc3c(c2)OCCO3)cc1,2%,.,.,.,-5%,-4,.
CCOc1c2ccc(C(=O)NCc3ccc4c(c3)OCO4)cc2nn1CCOC,28%,15%,4.8%,-1.5,2%,-9,28
COc1ccc(CC(=O)OCC(=O)NCc2ccc(F)cc2)cc1,-11%,.,.,.,8%,-4,.
COc1cccc2cc(C(=O)NCc3ccco3)c(=Nc3ccc(C(=O)O)cc3)oc12,-16%,1%,1.8%,5.9,-20%,-14,-1
CCCCCCC(=O)Oc1cccc(N2C(=O)C3CCCCC3C2=O)c1 (stereo unspecified),19%,-74%,-0.1%,-2.7,7%,-10,8
Cc1ccccc1NS(=O)(=O)c1cc(S(C)(=O)=O)ccc1C,1%,24%,-1.0%,4.4,9%,-5,15
CC(=O)Nc1ccc(Sc2ccccc2C(=O)Nc2ccc(F)cc2)cn1,6%[15.4 µM],10%,.,3.1,-6%,0,?
CCn1cc(C(=O)O)c(=O)c2cc(F)c(N/N=C/c3ccccc3)cc21,-29%,?,-16%,-1.3,-26%,-15,0
CCNS(=O)(=O)c1ccc(NC(=O)CC(C)c2ccccc2)cc1 (stereo unspecified),15%,14%,.,1.4,5%,3,-9
CCOC(=O)c1c(NC(=O)COC(=O)CC(NC(C)=O)c2ccccc2)sc(C(=O)NC)c1C (stereo unspecified),0%,.,-8.5%,.,?,-3,6
Cc1nc2ccccc2c2oc(C(=O)NCC3CCCO3)cc12 (stereo unspecified),13%,7%,?,2.2,0%,1,-3
CCc1cccc(CC)c1NC(=O)C1CCN(C(=O)c2ccco2)CC1,-2%[15.4 µM],10%,0.4%,4.9,4%,1,0
COC(=O)C(Cc1ccccc1)NC(=O)CC(C)CC(=O)Nc1ccc(OC)cc1OC (stereo unspecified),-36%[inhibitor],31%[activator],1.1%,0.4,3%,-13,-23
COc1ccc(-c2cc(C(=O)Nc3cc(Cl)ccc3O)no2)cc1,-33%[inhibitor],-8%,-2.9%,0.3,7%,-1,-2
CC(C)n1cc2c(N)ncnc2n1,1%[15.4 µM],.,1.2%,.,13%,2,.
COc1ccccc1CN1CC(C(=O)NCc2ccc(SC)cc2)CCC1=O (stereo unspecified),1%[15.4 µM],11%,-3.0%,0.2,-13%,-20,-9
COc1ccc(-c2ccc3c(c2)O[C@H](CN(C)C(=O)Nc2ccccc2F)[C@@H](C)CN([C@H](C)CO)S3(=O)=O)cc1,?,.,4.1%,.,.,-3,.
CS(=O)(=O)N(CC(=O)N1CCOCC1)c1cc(C(F)(F)F)ccc1Cl,9%,-5%,0.2%,0.1,1%,6,2
CCn1c(=O)n(CC(=O)NC2CCCC(C)C2C)c(=O)c2ccccc21 (stereo unspecified),10%,14%,?,-1.7,-5%[15.4 µM],-20,1
N#Cc1ccccc1OCc1nnc(-c2ccccc2Br)o1,20%,-2%,.,0.2,-6%,-1,-12
CCN(CC)c1ccc(/C=C2\NC(=O)NC2=O)cc1,2%,-18%,-2.2%,?,-14%,-6,6
O=C(COC(=O)c1cccc(NS(=O)(=O)c2ccc(F)c(F)c2)c1)NC(=O)NC1CCCCC1,-13%,-2%,-12%,4.0,?,-13,-3

Profiles from above:
CN1CCC(N(C)C(=O)c2ccc(Cl)c(S(=O)(=O)N3CCCCC3)c2)CC1 in the list: gsp ag: -12%; Sfp inh: .; ClpP mod: 0.6%; Menin MLL FP FL: .; gsp antag: 0%; D2 PAM: 0; TRPV1 PAM: -2
CCOC(=O)c1cnc2c(-c3ccccc3)cnn2c1C in the list: gsp ag: 3%; Sfp inh: -8%; ClpP mod: .; Menin MLL FP FL: -1.1; gsp antag: -14%; D2 PAM: 0; TRPV1 PAM: -11
